Source: PubChem BioAssay (several laboratories)
Mtb hypoxia rep: PubChem AID 1159583; fluorescence inhibition, % (concentration not given with the values); hit rate 0.1% among 300,000; M. tuberculosis hypoxia-regulated fluorescent reporter, fluorescence;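 active means 35 to 45% if threefold the growth effect, above 45% if 1.5-fold the growth effect; inactive means the rest, general growth blockers included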;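 further: wells of about 50 µL received 100 nL stock; 0% = vehicle wells and 100% = reference inhibitor wells; whole bacteria with a GFP reporter of the hypoxia response; strong numbers were not always called active; many hits fall short of the cut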
Bead autofluor: compound fluorescence in toxin protease inhibitor counterscreen | compound autofluorescence counterscreen, microsphere flow cytometry; hits give high values | fluorescence intensity (concentration not given with the values) | hit rate 3.1% among 360,000 | AID 624483;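 active means at least 3 SD above the mean of all compounds, about 16000 in these data; inconclusive means too few beads counted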;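 further: 100 nL of 1 mM stock went into each well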
Sa RN4220 lethal: growth inhibition of S. aureus RN4220, primary screen, OD600; inhibition, % (test concentration not listed); hit rate 0.33% among 330,000; 16 h;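 active means z-score of -3 or lower and OD600 up to 0.18 on both plates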;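 further: plate controls were untreated cells for no effect and reference antibiotic for full effect; stock transfer was 100 nL into about 80 µL; one replicate is shown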
ugtP null kill: growth inhibition of ugtP-null S. aureus, primary screen, RN4220 ugtP deletion, OD600; growth inhibition, % (concentration not given with the values); hit rate 0.54% among 330,000; 16 h; some inactives read as strong as hits;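 active means z-score under -3 and OD600 up to 0.15 on both plates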;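 further: plate controls were untreated wells for no effect and antibiotic for full effect; wells of about 80 µL received 100 nL stock; the first replicate is given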
PrP UTR inh: inhibition of PrP 5' UTR reporter expression; hit rate 0.35% among 340,000; cell-based PrP 5' UTR mRNA reporter, plate reader; AID 488862, 2010; inhibition, % (concentration not given with the values);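 active means every replicate at 50% or more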;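 further: 0 = median of the neutral control wells; tested in H4 reporter cells; numbers are from one replicate; inactives centre near -14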
BJeLR lethal: MLPCN primary cell-based screen for lethality selective to Ras in HRASV12 cells; inhibition, % (concentration not given with the values); BJeLR (HRASV12) viability, CellTiter-Glo ATP luminescence, 48 h; reference of the scale not given here; hit rate 0.17% among 300,000; AID 1554, 2009;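 active means replicate mean above 50%; inconclusive means above 50% but judged a plate artefact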;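 further: 50 nL library stock added to about 25 µL; numbers are from one replicate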
Mtb hypoxia rep growth: further read-out of Mtb hypoxia rep, marked with its call; growth inhibition, %; measured here: M. tuberculosis growth (absorbance);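 0% = vehicle and 100% = reference antibiotic; read after six days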
Starred values were filed as active, the others as inactive; ? = inconclusive; / = not tested or not shown.

SMILES | Mtb hypoxia rep | Mtb hypoxia rep growth | Bead autofluor | Sa RN4220 lethal | ugtP null kill | PrP UTR inh | BJeLR lethal
Cc1ccc(N2CC(C(=O)OCc3ccc([N+](=O)[O-])cc3)CC2=O)cc1 (stereo not drawn) | 5 | 5 | / | 8.8 | 1 | -23 | -3
COc1cccc(C2C(C(=O)Nc3ccc(C)cc3C)=C(C)Nc3ncnn32)c1OC (stereo not drawn) | 6 | 4 | 19983* | -0.8 | -2 | 0 | 0
CCOC(=O)c1ccc(NC(=O)CSc2nc3c(c(=O)n2-c2ccccc2OC)SCC3)cc1 | 4 | 7 | 5922 | -2.4 | -17 | -19 | -9
COc1ccc(Cl)cc1N/C(N)=N/c1nc(C)cc(=O)[nH]1 | 0 | 6 | 5041 | 2.0 | 5 | -36 | 4
COc1ccc(C2(C)NC(=O)N(CC(=O)Nc3ccc(S(=O)(=O)N4CCCC4)cc3)C2=O)cc1 (stereo not drawn) | -14 | 5 | 4405 | -0.5 | 6 | -6 | -8
CCSC1=C(C#N)C2(CCCCC2)C2=C(CC(C)(C)CC2=O)N1 | 5 | 0 | 4732 | 5.5 | -3 | -21 | 1
CCN(C[C@H]1N[C@@](Cc2ccccc2)(C(=O)OC)[C@H]2C(=O)N(C)C(=O)[C@@H]12)S(=O)(=O)c1ccc(-c2ccccc2)cc1 | -3 | 6 | 3327 | 5.1 | -4 | -20 | /
Cc1ccc(OCc2ccc(C(=O)Nc3nccs3)o2)cc1 | 8 | 5 | / | 6.0 | -7 | -22 | -3
CN(C)CCCSc1nc(-c2ccccc2)nc2c1CCC2 | -10 | 0 | 2604 | 5.3 | -2 | -13 | -5
CCOC(=O)Cc1csc(NC(=O)C(NC(=O)C2CCC(C)CC2)C(C)C)n1 (stereo not drawn) | 11 | 0 | 3511 | 2.2 | 5 | -34 | -3
Cn1nnnc1SCC(=O)NC1CCCCC1 | 7 | 6 | 3214 | 3.1 | 8 | -22 | 4
O=C(c1cc([N+](=O)[O-])ccc1Cl)N1CCN(Cc2ccc3c(c2)OCO3)CC1 | 12 | 10 | 2635 | 1.0 | 9 | -17 | 0
NNC(=O)c1cc2c(s1)CCCCCC2 | 7 | 7 | 2481 | 1.6 | -3 | -26 | -7
COc1ccc(OCC(=O)N2CCN(C/C=C/c3ccccc3)CC2)cc1 | 8 | 2 | 2442 | 2.4 | 0 | -10 | 0
CCc1c(C)c2ccc(OC(C)C(=O)NC(Cc3c[nH]c4ccc(O)cc34)C(=O)O)c(C)c2oc1=O (stereo not drawn) | / | / | 4105 | 0.0 | 3 | -10 | 8
CC(C)C(OC(=O)c1cccs1)C(=O)NCc1cccs1 (stereo not drawn) | 0 | 3 | 3429 | 8.8 | 11 | -3 | -3
COc1ccc(N2C(=O)NC(=O)/C(=C\c3ccccc3[N+](=O)[O-])C2=O)cc1 | 11 | -4 | 3729 | 2.2 | 2 | -33 | -16
CCc1nnc(NC(=O)CSc2ccc(-c3ccco3)nn2)s1 | 8 | 5 | 4793 | 1.0 | 1 | -16 | -6
Nc1cnn(-c2ccccc2)c(=O)c1Cl | 4 | 2 | 3543 | 1.0 | 5 | -21 | 1
COc1ccc(C(=O)CSc2nc3ncccc3[nH]2)cc1OC | -1 | -4 | 4351 | 2.7 | 5 | -1 | -1
CCOC(=O)c1cnc(/N=C/N(C)C)s1 | / | / | 4293 | / | / | -11 | -1
Cc1ccc(C)c(NC(=O)COC(=O)c2cccc(S(=O)(=O)N3CCCCC3)c2)c1 | 12 | 3 | / | 3.1 | 5 | -12 | -6
CC(O)C(NS(=O)(=O)c1ccc(Cl)cc1)C(=O)OCc1nnc(-c2ccccc2)o1 (stereo not drawn) | 13 | 6 | 3178 | 12 | -5 | -12 | -7
Cc1ccc(N2C(=O)CSC2=NC(=S)Nc2ccccc2)cc1 | -15 | -3 | / | -4.2 | 17 | / | /
COc1ccc(S(=O)(=O)N2CC3CCCN3c3cc(C(F)(F)F)ccc32)cc1 (stereo not drawn) | 6 | 1 | 4015 | -5.4 | 38 | -13 | 5
Cc1ccc(Cc2nnc(SCC(=O)Nc3ccccc3C)[nH]c2=O)cc1 | -6 | 3 | 6071 | 1.1 | 4 | -14 | -5
CC(C)Cc1ccc(S(=O)(=O)N2CCCC2)cc1 | 21 | 1 | 8123 | 7.3 | 9 | -9 | 10
CCOC(=O)N1CCC2(CC1)CC(=O)c1cc(O)ccc1O2 | 16 | 16 | 3302 | -10 | -1 | -13 | 5
COC(=O)c1ccccc1NC(=O)c1ccc(Cn2cc(Cl)cn2)o1 | / | / | 3129 | 1.2 | 9 | -6 | 7
CC(=O)N(C)c1ccc(NC(=S)NCC(C)C)cc1 | 4 | 7 | 4195 | 1.0 | 2 | -23 | -3
Cc1cc(C)cc(NC(=S)/N=C(\N)Nc2nc(C)c3ccccc3n2)c1 | -16 | -14 | 9353 | 9.4 | -3 | -6 | -2
COc1cc(C2Nc3ccccc3NC3=C2C(=O)CC(C)(C)C3)cc(OC)c1OC (stereo not drawn) | 3 | 2 | 4179 | 2.6 | 6 | -3 | 5
COc1ccccc1NS(=O)(=O)c1cc(NC(=S)NCCN2CCOCC2)ccc1N1CCOCC1 | 6 | 0 | 2119 | 1.3 | 4 | -14 | 5
C=C(C)CNC(=S)NN=Cc1ccc([N+](=O)[O-])cc1 | 10 | 2 | / | 5.0 | 9 | / | /
COc1ccc(C(C(=O)NC(C)(C)C)N(CC2CCCO2)C(=O)CCC(=O)Nc2cc(C)on2)cc1 (stereo not drawn) | 20 | 12 | 2324 | 4.8 | 4 | 25 | -15
CC/C(=N\NC(=O)c1ccccc1)c1c(O)n(Cc2ccccc2)c(=O)[nH]c1=O | 3 | -2 | 4374 | 3.3 | 4 | / | -5
CC(OC(=O)c1cc(O)c2ccccc2c1O)C(=O)Nc1ccc(C(N)=O)cc1 (stereo not drawn) | 6 | 9 | 6061 | 0.0 | 5 | -12 | 6
CN1C(=O)Nc2cccc3cccc1c23 | -5 | -2 | 3766 | 4.0 | -8 | 6 | 5
COc1ccc(NC(=O)Nc2cnccn2)cc1OC | 9 | -7 | 4626 | 3.3 | 6 | -4 | -4
Cc1nn(Cc2ccc([N+](=O)[O-])cc2)c(=O)n1-c1ccccc1Cl | 9 | 13 | 2694 | 5.4 | 6 | -17 | 4
Cn1c(=O)oc2cc(S(=O)(=O)N3CCCC(C(=O)Nc4nccs4)C3)ccc21 (stereo not drawn) | / | / | 5818 | / | / | -12 | 11
CSc1nncn1/N=C/c1ccccc1F | / | / | 23258* | / | / | -18 | 10
CC1CCN(C(=O)c2ccc(S(=O)(=O)Cc3cc(F)ccc3F)c([N+](=O)[O-])c2)CC1 | 6 | 4 | 2511 | -1.0 | 11 | -20 | 7
CC(NC(=O)COC(=O)c1cccc(S(=O)(=O)N2CCCC2)c1)c1ccccc1 (stereo not drawn) | 13 | 8 | 2910 | 1.2 | 8 | 0 | /
COc1cc(OC)c(C(=O)NCc2cccnc2)cc1OC | 5 | 16 | 4401 | 3.7 | 1 | -14 | -8
O=C(Nc1ccc(F)cc1)c1cccnc1NCCc1ccccc1 | 14 | 4 | 8384 | -9.6 | 57 | -1 | -14
Nn1c(Cc2cccc3ccccc23)nnc1SCCOc1ccc(Br)cc1 | 1 | -4 | 2656 | -15 | -31 | 2 | -8
O=C(OCC(=O)N1CCN(C(=O)c2ccco2)CC1)c1ccccc1O | / | / | 3369 | -2.6 | 2 | -31 | -2
N#Cc1c(=O)c2nc(NCCCO)ncc2n2c(=O)c3ccccc3[nH]c12 | -3 | -1 | 1991 | -1.2 | 0 | -22 | 0
C[C@@H]1NC(=O)c2cc([N+](=O)[O-])cc(I)c2OCC[C@@H](C(N)=O)NC(=O)[C@H](CCCCN)NC1=O | / | / | 4262 | / | / | -39 | 1
Carrying on.
SMILES | Mtb hypoxia rep | Mtb hypoxia rep growth | Bead autofluor | Sa RN4220 lethal | ugtP null kill | PrP UTR inh | BJeLR lethal
O=C(Nc1ccccc1-c1ccccc1)c1ccc(Br)o1 | -3 | 6 | ? | 9.0 | 10 | 7 | 3
CCCN1C(=O)C(NC(=O)c2ccncc2)(C(F)(F)F)C2=C1CC(C)(C)CC2=O (stereo not drawn) | 14 | 7 | 7686 | 0.8 | -4 | -18 | 1
CCCCN1CC(=O)N2C3c4cc(Cl)ccc4OCC3C(c3ccccc3)[C@]2(C)C1=O (stereo partly drawn) | 7 | 9 | / | 11 | 11 | / | /
CC(=O)c1ccc(-n2ccc(=O)cc2)cc1 | 4 | 0 | 2878 | 2.0 | 2 | -40 | 6
Cc1ccc2nc(NC(=O)c3cccc(-c4cc5ccccc5oc4=O)c3)sc2c1 | 11 | 3 | / | 19 | 12 | / | -8
CC(CC(=O)N1CCN(C=O)CC1)=NNC(=O)c1ccc(Cl)cc1 | 0 | -3 | / | 2.2 | 3 | / | /
Cc1cc(C=NNC(=O)c2cc3ccccc3o2)c(C)n1C | 2 | 1 | / | 0.1 | -6 | / | /
CC1CN(C(=O)COc2coc(CN3CCc4ccccc4C3)cc2=O)CC(C)O1 (stereo not drawn) | 11 | 4 | 4988 | 2.1 | 3 | -21 | 2
COC(=O)c1ccc(/C=C2\SC(=S)N(CCCC(=O)NCCCN3CCOCC3)C2=O)cc1 | -5 | 9 | 3645 | 2.8 | -1 | 22 | 6
COc1ccccc1C1CCN(c2ccc([N+](=O)[O-])cn2)CC1 | 4 | 7 | 4424 | 1.4 | -2 | -28 | 0
CCn1c(COc2ccccc2C)nnc1SCc1nc2ccccc2c(=O)[nH]1 | 8 | 12 | / | 3.6 | 1 | / | -9
Cc1ccc(/C=N/NC(=O)c2ccoc2C)o1 | / | / | 2514 | / | / | -41 | -3
CC(=O)NC1C(=O)N(CCN2CCOCC2)c2ccc(F)cc21 (stereo not drawn) | 12 | 8 | 3538 | 1.3 | -1 | -7 | 5
Cc1cc(C)n(-c2cc(N3CCN(C(=O)c4ccc(C(C)(C)C)cc4)CC3)ccc2[N+](=O)[O-])n1 | / | / | 4360 | -4.1 | -10 | 1 | 2
COc1ccc(-c2ccc(SCC(=O)N3CCOCC3)nn2)cc1 | 0 | 1 | 22594* | 3.4 | 3 | -12 | -10
O=C(Nc1ccccc1)c1ccccc1NC(=O)C(F)(F)F | 3 | 5 | 9916 | 15 | -3 | -23 | 17
Fc1ccc(NCc2nnc3n2CCCCC3)cc1 | 10 | 12 | 4574 | 1.0 | 7 | -38 | 0

Given field by field: entries from further up
SMILES: COc1ccc(NC(=O)Nc2cnccn2)cc1OC
  Mtb hypoxia rep = 9 | Mtb hypoxia rep growth = -7 | Bead autofluor = 4626 | Sa RN4220 lethal = 3.3 | ugtP null kill = 6 | PrP UTR inh = -4 | BJeLR lethal = -4

SMILES: COc1cc(C2Nc3ccccc3NC3=C2C(=O)CC(C)(C)C3)cc(OC)c1OC (stereo not drawn)
  Mtb hypoxia rep = 3 | Mtb hypoxia rep growth = 2 | Bead autofluor = 4179 | Sa RN4220 lethal = 2.6 | ugtP null kill = 6 | PrP UTR inh = -3 | BJeLR lethal = 5

Of the compounds above, these have an aryl thioether with sulfur outside any ring:
SMILES | Mtb hypoxia rep | Mtb hypoxia rep growth | Bead autofluor | Sa RN4220 lethal | ugtP null kill | PrP UTR inh | BJeLR lethal
CCOC(=O)c1ccc(NC(=O)CSc2nc3c(c(=O)n2-c2ccccc2OC)SCC3)cc1 | 4 | 7 | 5922 | -2.4 | -17 | -19 | -9
CN(C)CCCSc1nc(-c2ccccc2)nc2c1CCC2 | -10 | 0 | 2604 | 5.3 | -2 | -13 | -5
Cn1nnnc1SCC(=O)NC1CCCCC1 | 7 | 6 | 3214 | 3.1 | 8 | -22 | 4
CCc1nnc(NC(=O)CSc2ccc(-c3ccco3)nn2)s1 | 8 | 5 | 4793 | 1.0 | 1 | -16 | -6
COc1ccc(C(=O)CSc2nc3ncccc3[nH]2)cc1OC | -1 | -4 | 4351 | 2.7 | 5 | -1 | -1
Cc1ccc(Cc2nnc(SCC(=O)Nc3ccccc3C)[nH]c2=O)cc1 | -6 | 3 | 6071 | 1.1 | 4 | -14 | -5
CSc1nncn1/N=C/c1ccccc1F | / | / | 23258* | / | / | -18 | 10
Nn1c(Cc2cccc3ccccc23)nnc1SCCOc1ccc(Br)cc1 | 1 | -4 | 2656 | -15 | -31 | 2 | -8
CCn1c(COc2ccccc2C)nnc1SCc1nc2ccccc2c(=O)[nH]1 | 8 | 12 | / | 3.6 | 1 | / | -9
COc1ccc(-c2ccc(SCC(=O)N3CCOCC3)nn2)cc1 | 0 | 1 | 22594* | 3.4 | 3 | -12 | -10
